Screening results (PubChem BioAssay)
Mtb growth: Mycobacterium tuberculosis H37Rv growth inhibition, putative kinase inhibitor library, confirmatory dose response (AID 2842). M. tuberculosis H37Rv growth inhibition; higher % means a stronger effect; some inactives read as strong as hits. inhibition, % at 10 µg/mL; hits with a dose series show IC90 in µg/mL. 24,000 compounds, 5.2% hits;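 active = confirmed in a dose series; about a fifth of its hits are not listed in these tables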;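 also: bacteria incubated one week before Alamar blue readout; 0% = bacteria only wells and 100% = bacteria with high antibiotic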
* marks the source's active call; other numbers are inactive results; & = joins results of further samples. Not all compounds are listed, so the mix of outcomes need not match the whole.

SMILES	Mtb growth
CC(=O)Nc1c(C(=O)Nc2ccc(OC(F)(F)F)cc2)oc2ccccc12	-3%
COc1ccc(Cn2cc(C(=O)c3ccc(Cl)cc3)c(=O)c3ccccc32)cc1	62%
CCOc1cc(-c2nnc(NC(C)=O)o2)cc(OCC)c1OCC	2%
Cc1cccc(NC(=O)CSc2nc3c(oc4ccccc43)c(=O)n2Cc2ccco2)c1C	-6%
CCOc1ccccc1NC(=O)CSCCCCN1C(=O)c2ccccc2C1=O	-9%
CCN1CCN(c2nc(Nc3ccc(F)cc3)c3nccnc3n2)CC1	13%
CCC(=O)NCCc1cc2ccc(C)cc2[nH]c1=O	-8%
NC(=O)c1nc(-c2ccccc2)nc2c1[nH]c(=O)n2-c1ccccc1	-2%
Cn1c(=O)[nH]c(=O)c2c1nc(SCC(N)=O)n2CCc1ccccc1	-11%
Cc1ccc2c(c1)Cc1c(nc(-c3ccc(F)cc3)nc1SCC(=O)Nc1c(C)cccc1C)O2	-4%
O=C(Nc1nnc(-c2ccc(F)cc2)s1)c1ccc([N+](=O)[O-])cc1	10%
COc1ccc(C2CC(c3c(-c4ccccc4)c4cc(Br)ccc4[nH]c3=O)=NN2C(=O)c2cccc(Cl)c2)cc1 (configuration not stated)	8%
Cn1c(=O)[nH]c(=O)c2c1nc(N1CCN(c3ccccc3)CC1)n2CCSc1ncccn1	2%
COC(=O)N1CCc2c(sc(NC(=O)c3cccc([N+](=O)[O-])c3)c2C(N)=O)C1	-9%
COc1ccc(NC(=O)c2oc3ccccc3c2NC(=O)c2ccc([N+](=O)[O-])cc2)cc1	-3%
N#Cc1ccc(-c2csc(NC(=O)C3CC3)n2)cc1	11%
CCOC(=O)c1ccc2nc(NC(=O)c3cccs3)sc2c1	-10%
O=C(O)CN1C(=O)S/C(=C\c2ccc(O)cc2)C1=O	-32%
CCOC(=O)c1nn(-c2ccc(C)cc2)c(=O)c2c(NC(=O)c3cccc(C(F)(F)F)c3)scc12	-8%
CCc1ccc(NC(=O)CCn2c(=O)oc3ccccc32)cc1	1%
O=C1NC(=S)NC(=O)C1=Cc1nc(-c2ccccc2Cl)n2ccccc12	11µg/mL*
COc1ccc(OC)c(NC(=O)c2oc3ccccc3c2NC(=O)c2ccco2)c1	-4%
O=C(CSc1nnc2ccc(-c3cccnc3)nn12)Nc1ccc(Cl)c(Cl)c1	-3%
CC(=O)N1CCc2c(sc(NC(=O)c3ccccc3C)c2C(N)=O)C1	-5%
O=C1c2cccc3cccc(c23)C(=O)N1CCc1ccc(S(=O)(=O)NCc2ccco2)cc1	0%
Cc1cnc(=O)[nH]c1SCc1cccc(Cl)c1	-6%
CCCc1cc(=O)[nH]c(NCc2ccccc2)n1	0%
O=C(Nc1nnc(-c2ccc(Br)cc2)o1)c1ccc(F)cc1	79%
COc1ccc(C(=O)NCc2nnc(SCC(=O)Nc3nnc(C)s3)n2CCc2ccccc2)cc1	11%
CCOC(=O)c1c(NC(=O)c2ccccc2Br)sc2c1CC(C)(C)NC2(C)C	8.8µg/mL*

Reprinted at random: 2 records from the list.
SMILES	Mtb growth
O=C(Nc1nnc(-c2ccc(Br)cc2)o1)c1ccc(F)cc1	79%
N#Cc1ccc(-c2csc(NC(=O)C3CC3)n2)cc1	11%

Following part
SMILES	Mtb growth
CCOCC(=O)Nc1c(C(=O)Nc2ccc(F)c(Cl)c2)oc2ccccc12	13%
CCOc1cccc2c1OC(c1ccncc1)N1N=C(c3cc(C)ccc3O)CC21 (configuration not stated)	-9%
Cc1ccc(-c2cc(C(=O)O)n[nH]2)s1	-12%
Cc1ccccc1-c1nc(C(N)=O)c2[nH]c(=O)n(-c3ccccc3)c2n1	-8%
CC(=O)c1sc(NC(=O)c2ccc(Oc3ccccc3)cc2)nc1C	9%
O=C(Nc1ccc([N+](=O)[O-])cc1)c1oc2ccccc2c1NC(=O)C1CCCC1	6%
Cc1cc2cc(CNC(=O)Nc3ccccc3)ccc2[nH]1	71%
Cc1ccc(-c2nnc3ccc(SCC(=O)Nc4ccc(C)cc4C)nn23)cc1	11%
Nc1nc(SCC(=O)NCc2ccc3c(c2)OCO3)[nH]c(=O)c1NC(=O)c1ccc(Cl)cc1	-7%
COc1cc([N+](=O)[O-])cc(/C=N/Nc2nc(C)cc(=O)[nH]2)c1O	7%
COc1cc(/C=N/NC(=O)COc2ccc(C)cc2)ccc1O	1%
CCC1CCCCN1CCCNC(=O)c1c(O)nc2sccn2c1=O (configuration not stated)	-9%
CCOC(=O)c1sc2nc3c(cc2c1N)C(=O)CCC3	-4%
CC(=O)c1cccc(NC(=O)NC2CC(=O)N(c3ccc(F)cc3)C2)c1 (configuration not stated)	6%
CSc1cccc(-n2cc(-c3ccc4c(c3)OCO4)[nH]c2=O)c1	-1%
CCCN1CCc2c(sc(NC(=O)c3ccc(C)cc3C)c2C(N)=O)C1	7%
Cc1oc2c(c1C(=O)N1CCN(c3ccc(F)cc3)CC1)C(=O)c1ccccc1C2=O	10%
COc1cccc(NCCCn2c(C)cn3c4c(=O)[nH]c(=O)n(C)c4nc23)c1	46µg/mL*
CCOC(=O)c1nn(-c2ccccc2)c(=O)c2c(NC(=O)c3ccc(F)c(F)c3)scc12	-3%
CCOC(=O)COc1cccc2c(=O)n(CC(=O)N3CCC(C)CC3)ccc12	10%
CC1C(=O)N2CCCc3cc(S(=O)(=O)N(C)CCC#N)cc1c32 (configuration not stated)	-1%
COc1cc(OC)cc(C(=O)NCCc2cc3c(OC)ccc(OC)c3[nH]c2=O)c1	-4%
CSc1ccc2nc(Nc3cccc(C)c3C)sc2c1	19µg/mL*
Cc1ccccc1OCC(=O)N=Nc1c(O)[nH]c2ccc(Br)cc12	36%
CCOC(=O)c1nn(-c2ccc(OC)cc2)c(=O)c2c(NC(=O)c3c(OCC)ccc4ccccc34)scc12	5%
Cc1ccc(Cl)cc1NS(=O)(=O)c1c[nH]c(=O)[nH]c1=O	5%
COCCn1c(Sc2ccccc2)nc2c1c(=O)[nH]c(=O)n2C	-6%
O=C1/C(=C/c2cccc(Br)c2)Oc2cc(O)ccc21	54%
O=c1oc2cc(OCc3ccc(F)cc3)c(Cl)cc2c2c1CCC2	-11%
CC1CCCN(c2nc3c(c(=O)[nH]c(=O)n3C)n2Cc2ccccc2)C1 (configuration not stated)	6%

In another format: entries from further up
SMILES | Mtb growth
CCCN1CCc2c(sc(NC(=O)c3ccc(C)cc3C)c2C(N)=O)C1 | 7%
CSc1ccc2nc(Nc3cccc(C)c3C)sc2c1 | 19µg/mL*
COCCn1c(Sc2ccccc2)nc2c1c(=O)[nH]c(=O)n2C | -6%
COc1cc(OC)cc(C(=O)NCCc2cc3c(OC)ccc(OC)c3[nH]c2=O)c1 | -4%

Shown with bars between the fields: 5 of the compounds above
molecule | Mtb growth
CC1C(=O)N2CCCc3cc(S(=O)(=O)N(C)CCC#N)cc1c32 (configuration not stated) | -1%
COc1cc(OC)cc(C(=O)NCCc2cc3c(OC)ccc(OC)c3[nH]c2=O)c1 | -4%
CSc1ccc2nc(Nc3cccc(C)c3C)sc2c1 | 19µg/mL*
Cc1ccccc1OCC(=O)N=Nc1c(O)[nH]c2ccc(Br)cc12 | 36%
CCOC(=O)c1nn(-c2ccc(OC)cc2)c(=O)c2c(NC(=O)c3c(OCC)ccc4ccccc34)scc12 | 5%

(further entries)
SMILES	Mtb growth
Cc1ccc(-c2csc(NC(=O)c3cc(-c4cccs4)nc4ccccc34)n2)o1	21%
CCOc1ccc(-n2c(SCC(=O)OCc3ccccc3)nc3c([nH]c4ccccc43)c2=O)cc1	-4%
COC(=O)c1c(NC(=O)Cc2cccc3ccccc23)sc2c1CCN(C(C)=O)C2	-3%
O=C(CCSc1ccccc1)Nc1nc(-c2ccc(-c3ccccc3)cc2)cs1	4%
COc1cccc2c(=O)n(CC(=O)Nc3cccc4ccccc34)ccc12	-1%
Cc1ccc(NC(=O)Cn2cc(S(=O)(=O)c3ccccc3)c(=O)c3cc(C)ccc32)c(C)c1	-8%
CN(C)S(=O)(=O)c1ccc(C(=O)Nc2ccc(Cl)cc2)cc1	8%
O=C1NC(c2cccnc2)C(C(=O)c2ccccc2)C(O)(C(F)(F)F)N1 (configuration not stated)	-6%
CCOc1cccc2sc(NC(=O)c3ccc(Cl)cc3Cl)nc12	12µg/mL*
COc1ccc(C(=O)c2cn(Cc3cccc(F)c3)c3cc4c(cc3c2=O)OCCO4)cc1OC	64%
N#Cc1ccccc1NC(=O)C(=O)NCCSc1ncc(-c2ccccc2)[nH]1	4.5µg/mL*
Cc1ccccc1NC(=O)CSc1nnc(CNC(=O)c2ccc(S(=O)(=O)N(C)C)cc2)o1	0%
CC(C)C(=O)Nc1c(C(=O)Nc2ccc3c(c2)OCCO3)oc2ccccc12	-4%
O=C(N/N=C/c1ccc(F)cc1)c1[nH]nc2c1CCc1ccccc1-2	0%
CCOC(=O)c1nn(-c2ccc(C(F)(F)F)cc2)c(=O)c2c(NC(=O)c3ccccc3OCC)scc12	3%

Gathered by group, those above containing a COOH group
SMILES	Mtb growth
O=C(O)CN1C(=O)S/C(=C\c2ccc(O)cc2)C1=O	-32%
Cc1ccc(-c2cc(C(=O)O)n[nH]2)s1	-12%

Additional records follow:
SMILES	Mtb growth
Cc1cccc(N2CCN(C(=O)CCCCCn3c(=O)[nH]c4ccsc4c3=O)CC2)c1C	21µg/mL*
CCn1c(SCC(=O)Nc2ccc(Br)cc2)nc2c(c1=O)SC(C)C2 (configuration not stated)	8%
CCOC(=O)c1nn(-c2ccc(C)cc2)c(=O)c2c(NC(=O)C(CC)CC)scc12	1%
CC(=O)C1=C(C)Nc2ncnn2C1c1ccc(C(C)C)cc1 (configuration not stated)	-5%
Cc1nc2ccc3nc(NC(=O)c4cccc(Oc5ccccc5)c4)sc3c2s1	12%
CCOc1ccccc1C(=O)Nc1nnc(-c2ccc(OC)cc2OC)s1	9%
CCc1ccc(S(=O)(=O)/N=C2\C=CC(=O)c3ccccc32)cc1	42%
Cc1cccc(CC2S/C(=N/N=C/c3ccccc3)NC2=O)c1 (configuration not stated)	-14%
COc1ccc(NC(=O)CN2N=NC3C(=O)N(c4ccc(C)c(Cl)c4)C(=O)C32)cc1 (configuration not stated)	-2%
O=C(Nc1nnc(-c2cccc([N+](=O)[O-])c2)s1)c1ccc2c(c1)OCO2	-3%
CC(C)(C)OC(=O)c1c(N)n(CCO)c2nc3ccccc3nc12	7%
O=C(Nc1nc(-c2ccccc2)c(C(=O)c2ccccc2)s1)c1ccc(Br)s1	12%
N#C/C(=C/Nc1ccc(F)cc1[N+](=O)[O-])c1nc(-c2cccc(Br)c2)cs1	-1%
Cc1nnc(SCC(=O)Nc2cc(C(F)(F)F)ccc2Cl)[nH]c1=O	-21%
CCN(CC)C(=O)Cn1cnc2sc3c(c2c1=O)CCCC3	-9%
O=c1[nH]cc(S(=O)(=O)Nc2cccc(F)c2)c(=O)[nH]1	-4%
CCOc1cc(C(=O)Nc2c3c(nn2C(C)(C)C)CS(=O)C3)cc(OCC)c1OCC (configuration not stated)	-6%
O=C(O)CSc1cccc2cccnc12	11%&-2%
O=C(CN1CCCCC1)N1N=C(c2c(-c3ccccc3)c3cc(Cl)ccc3[nH]c2=O)CC1c1ccccc1Cl (configuration not stated)	11%
O=C(Nc1ccc2c(c1)OCCO2)c1oc2ccccc2c1NC(=O)C1CCCO1 (configuration not stated)	9%
COc1ccc(OCCSc2nc3ccccc3n2CCC(=O)O)cc1	-15%
CCOc1ccc(NC(=O)C(=O)Nc2cc3c4c(c2)CCC(=O)N4CCC3)cc1	6%
CC(OC(=O)CN1C(=O)c2ccccc2C1=O)c1nc2ccccc2s1 (configuration not stated)	-8%
O=C(Cn1cnc2c(cnn2-c2ccc(F)cc2)c1=O)NCC1CCCO1 (configuration not stated)	-4%
Cc1ccc2cc(CCNC(=O)c3cc(Cl)ccc3[N+](=O)[O-])c(=O)[nH]c2c1	-2%
COc1ccc(Cl)c2sc(NC(=O)c3ccc(C#N)cc3)nc12	2%
NS(=O)(=O)c1ccc(NC(=O)c2ccccc2Br)cc1	-13%
COc1ccc(/C=C\C(=O)NCCc2cc3ccc(C)cc3[nH]c2=O)cc1OC	12%
Cn1c(=O)c2c(nc3n(CC(N)=O)c(-c4ccccc4)cn23)n(C)c1=O	12%
Cc1ccc(C(=O)Nc2c(N)nc(SCC(=O)Nc3cccc(C)c3)[nH]c2=O)cc1	-13%
O=C(Nc1nnc(SCC(=O)N2CCc3ccccc32)s1)c1ccc(-c2ccccc2)cc1	4%
COc1cccc(C(=O)Nc2sc3c(c2C#N)CC(C)CC3)c1 (configuration not stated)	-4%
CN(c1ccccc1)S(=O)(=O)c1ccc(C(=O)Nc2sccc2C(N)=O)cc1	-3%
CCOC(=O)c1nn(-c2ccc(C(C)C)cc2)c(=O)c2c(NC(=O)c3ccc(S(=O)(=O)N(CC)CC)cc3)scc12	-2%
COc1ccc(-c2nsc(SCC(=O)Nc3ccc4c(c3)OCO4)n2)cc1	-3%
Nc1nc(SCC(=O)Nc2cccc3ccccc23)[nH]c(=O)c1NC(=O)c1ccco1	-11%
CC1=C(C(=O)Nc2cccc(C)c2C)C(c2ccccc2Cl)NC(=O)N1 (configuration not stated)	5%
O=C(CSc1ncnc2c1oc1ccccc12)Nc1cccc(C(F)(F)F)c1	4%
Cc1ccc(NC(=O)CN2N=NC3C(=O)N(c4ccc(F)c(Cl)c4)C(=O)C32)c(C)c1 (configuration not stated)	-5%
CCOc1ccc(NC(=O)c2oc3ccccc3c2NC(=O)CC2CCCC2)cc1	3%
COc1cc(/C=C(/C#N)c2nc(-c3ccc([N+](=O)[O-])cc3)cs2)cc([N+](=O)[O-])c1O	100%
O=c1[nH]c2ccc(Br)cc2c(-c2ccccc2)c1CNS(=O)(=O)c1ccccc1	-3%
COc1cc2c(=O)c(C(=O)c3ccc(F)cc3)cn(Cc3ccccc3)c2cc1OC	3%
N#Cc1cc(-c2ccccc2)oc1NC(=O)c1ccc(Cl)cc1Cl	1%
